# Source: PubChem
# NPYLR7 ag: activates Aedes aegypti NPYLR7 receptor; HEK293T NPYLR7/Galpha15, GCaMP6s calcium fluorescence; activation, % at 10 µM; hit rate 0.15% among 270,000; AID 1259423; in the data active = activation above about 40%;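 note: 0% = vehicle and 100% = reference agonist at the receptor; some compounds past the cut are filed as inactive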
# NPYLR7 ag max-min: recorded beside NPYLR7 ag, whose call it bears; activation, %; measured here: Max-Min RFU normalised activation; some inactives read as strong as hits;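 span of the calcium signal over five minutes; 0% = vehicle and 100% = native peptide agonist; compound fluorescence can raise it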
# * marks the source's active call; other numbers are inactive results; & = joins results of further samples. Not all compounds are listed; the hit share may differ from the screen's.
item	mol	NPYLR7 ag	NPYLR7 ag max-min
1	CCc1cc(C(=O)OC)c(NC(=S)NCc2cnn(CC)c2)s1	-11	-20
2	Cc1ccsc1C(=O)C1CCCN(Cc2c(C)n(C)n(-c3ccccc3)c2=O)C1 (stereo unspecified)	7	9
3	CCN(Cc1ccc2c(c1)OCO2)C(=O)C(C)n1cnc2ccccc21 (stereo unspecified)	-3	0
4	O=C(NCCc1ccco1)c1cc(COc2ccc3c(c2)CCCC3)on1	5	2
5	CCc1nc(C)c(C(=O)NCCN2CCC(C)CC2)s1	8	4
6	CC1(C)CC(NC(=O)c2cc(-c3cccc(Cl)c3)n[nH]2)CC(C)(C)N1	5	3
7	COC(=O)Cn1c(=NC(=O)c2cc(Cl)sc2Cl)sc2cc(OC)ccc21	1	-4
8	CC(C)(C)CC(=O)NC1CCN(C(=O)c2ccoc2)CC1	-2	-2
9	COc1ccc(C2C(C(=O)OC3CCCC3)=C(C)NC3=C2C(=O)CCC3)c(OC)c1OC (stereo unspecified)	-3	-8
10	COc1ccc(-c2nc(CSc3ccc(Cl)c(Cl)c3)cs2)cc1OC	4	0
11	COc1ccc(NS(=O)(=O)c2ccc(OC(F)(F)F)cc2)c(C(=O)NCc2ccccc2)c1	4	1
12	CCN(CC)C(=O)CSc1nnc(SC(C)C#N)s1 (stereo unspecified)	0&4	23&-1
13	Fc1ccc(CSc2ncnc3c2nnn3-c2ccc(F)cc2)cc1	9	20
14	CCS(=O)(=O)c1ccc2oc(-c3ccccc3NC(=O)c3ccccc3C)nc2c1	-5	2
15	COCc1cc(C)nc(OCC(=O)N/N=C\c2ccc(-c3ccc(Cl)c(C(=O)O)c3)o2)c1C#N	11	11
16	CCOc1ccc(CN(C)Cn2cc(C)n(-c3ccccc3F)c2=O)cc1	4	-2
17	O=C(N/N=C1\CC2C=CCC12)c1cccnc1 (stereo unspecified)	-3	-7
18	CCCn1c(SC(C)C(=O)c2[nH]c(C)c(C(=O)OCC)c2C)n[nH]c1=O (stereo unspecified)	-3	0
19	CCOC(=O)CCC(=O)Nc1c(-c2cccc(F)c2)cn(Cc2ccccc2)c1C(=O)OCC	2	-5
20	CCNC(=O)[C@@]1(OCc2ccccc2)CC(OCC2CC2)[C@H](O)[C@H](O)C1 (stereo partly specified)	-2	0
21	COc1ccccc1NC(=O)N1CCCN(c2nc(Cc3ccc(C)cc3)nc3onc(-c4cccnc4)c23)CC1	19	5
22	O=C(Cn1cnc([N+](=O)[O-])n1)Nc1cccc(Cl)c1	-9	-14
23	O=C(c1ccc([N+](=O)[O-])cc1)N(Cc1cccc(OS(=O)(=O)c2ccc(F)cc2)c1)Cc1ccco1	-2	8
24	CC1(C(=O)NS(=O)(=O)c2cccs2)CCN1C(=O)CC(c1ccccc1)c1ccccc1 (stereo unspecified)	0	-6
25	CC1Cc2ccccc2N1C(=O)CNc1ccc(C(=O)N(C)C)cc1 (stereo unspecified)	-1	-2
26	COCCc1noc(-c2ccc(-c3cccc4c3OCC4)nc2)n1	2	-4
27	c1ccc(C(CNCc2cn[nH]c2-c2cccc3ccccc23)N2CCOCC2)nc1 (stereo unspecified)	9&4	5&5
28	Cc1cnc(NC(=O)c2ccccc2-c2nc(C(C)C)no2)s1	1	-3
29	Cc1ccc(-n2nc(C)c(C(=O)N3CCC(C(N)=O)C3)n2)c(C)c1 (stereo unspecified)	-1	-2
30	O=C(Nc1nnc(C2CC2)s1)N1CCCC1c1cccc(Cl)c1 (stereo unspecified)	1	-3
31	CCCc1nnc(N2CCCN(C)CC2)s1	-2	-4
32	O=C(COc1ccccc1)NCC1Cc2cccc(F)c2O1 (stereo unspecified)	20	12
33	CCc1nc2c(OCCOc3ccc(F)cc3)cccn2c1N(C)C(=O)c1ccncc1	13	3
34	CCOC(=O)C1(Cc2ccccc2)CCCN(S(=O)(=O)c2ccccc2C(=O)OC)C1 (stereo unspecified)	1	1
35	Cc1ccc(-n2nc(C(C)(C)C)cc2NC(=O)CN(Cc2ccco2)C(=O)NC2CCCCC2)c(C)c1	-4	-3
36	CCN(CC)C(=O)Cn1nc(-c2cccs2)c2sc(C)nc2c1=O	7	4
37	Cc1cc(C)c(CNCCS(=O)(=O)N2CCCC2)c(C)c1CO	-6	-11
38	CCCS(=O)(=O)NCCCn1nc(-c2cccs2)ccc1=O	3	1
39	CC(=O)Nc1ccc(-c2nccn2-c2ccc(-c3n[nH]c(C)n3)cc2)cc1	3	1
40	Cc1nn(C)c(C)c1CN(Cc1nc(-c2cccc(F)c2)oc1C)C(C)C	4	1
41	O=[N+]([O-])c1cccc(CN2CCN(c3cc(Oc4ccc(Cl)cc4)ncn3)CC2)c1	5	4
42	C=CCn1nc(C(=O)N2CCCCCC2)c2c1CCC(N1CCN(c3ccccc3)C(=O)C1)C2 (stereo unspecified)	19	3
43	Cn1c(=O)c2c(SCC(=O)N3CCCc4ccccc43)nc(-c3cccc(F)c3)nc2n(C)c1=O	-5	-8
44	Cc1cccn2c(=O)c3cc(C(=O)NC(C)C)n(C)c3nc12	6&4	9&6
45	c1ccc2nc3c(nc2c1)sc1nc2ccccc2n13	0	-2
46	CCN(CC)CCc1nc2c([nH]1)CC(c1ccc(Cl)cc1)CNC2=O (stereo unspecified)	-1	-2
47	COC(=O)Nc1nc2ccc(SC(C)C)cc2[nH]1	20	17
48	COC(=O)CCNC(=O)c1cc(C)n(-c2cccc(C(C)C)c2)c1C	4	5
49	O=C(c1cn[nH]c1)N(CC1CCN(C2Cc3ccccc3C2)CC1)CC1CCCO1 (stereo unspecified)	1	0
50	O=[N+]([O-])c1cccc(S(=O)(=O)Oc2ccc(OCc3ccccc3)cc2)c1	5	0

# An excerpt of these results, in transposed form:
33	CCc1nc2c(OCCOc3ccc(F)cc3)cccn2c1N(C)C(=O)c1ccncc1
37	Cc1cc(C)c(CNCCS(=O)(=O)N2CCCC2)c(C)c1CO
26	COCCc1noc(-c2ccc(-c3cccc4c3OCC4)nc2)n1
50	O=[N+]([O-])c1cccc(S(=O)(=O)Oc2ccc(OCc3ccccc3)cc2)c1
29	Cc1ccc(-n2nc(C)c(C(=O)N3CCC(C(N)=O)C3)n2)c(C)c1 (stereo unspecified)
41	O=[N+]([O-])c1cccc(CN2CCN(c3cc(Oc4ccc(Cl)cc4)ncn3)CC2)c1

Screen / compound no. | 33 | 37 | 26 | 50 | 29 | 41
NPYLR7 ag | 13 | -6 | 2 | 5 | -1 | 5
NPYLR7 ag max-min | 3 | -11 | -4 | 0 | -2 | 4

# (next part)
item	mol	NPYLR7 ag	NPYLR7 ag max-min
51	O=C(COCc1ccccc1)N1CCCN(c2nc(Cc3ccccc3)nc3onc(-c4ccccc4)c23)CC1	11	1
52	Cc1ccccc1-n1c(SCc2nc(C(=O)N3CCC4(CC3)OCCO4)cs2)nnc1-c1ccccc1Cl	-6	1
53	CN(OCc1ccccc1)C(=O)C(Cc1ccccc1)N1CCCOC1=O (stereo unspecified)	3	1
54	COc1cccc(CN(Cc2nc(C(=O)NCc3cccnc3)co2)C(C)C(C)C)c1 (stereo unspecified)	23	34
55	Cc1cccc(C)c1OCc1cc(C(=O)N2CCCN(Cc3ccccc3F)CC2)no1	7	4
56	Nc1nc(N)nc(COc2ccc(-c3ccccc3)cc2Cl)n1	5	9
57	O=C(c1ccc(OC(F)F)cc1)N1CCOC(COCc2ccc(F)cc2Cl)C1 (stereo unspecified)	11	7
58	Cc1ccc(-c2cc(C(=O)NCCCn3ccnc3)c3ccccc3n2)s1	1	-7
59	CCn1nnc2cc(C(=O)Nc3nc(-c4ccccc4)cs3)ccc21	0	6
60	O=[N+]([O-])c1cc(S(=O)(=O)C(F)(F)F)ccc1N1CCN(c2ccccc2F)CC1	0	1
61	CCC(=O)Nc1sc(SCC(N)=O)nc1-c1ccccc1	-7	-11
62	CC=CC(=O)Nc1nnc(C2CC2)s1	2	1
63	NC(=O)c1nc(C2CCCCC2)nc2c1[nH]c(=O)n2-c1ccccc1F	-3	-6
64	O=C(CCN1CCC(O)(c2ccc(Cl)cc2)CC1)NCc1ccco1	-3	-5
65	CCOC(=O)CNC(=O)NC1CC(=O)N(C2Cc3ccccc3C2)C1 (stereo unspecified)	20	14
66	CC(NC(=O)c1nn(-c2ccc(Cl)cc2)c(=O)n(Cc2ccc(F)cc2)c1=O)c1ccccc1 (stereo unspecified)	14	12
67	CCS(=O)(=O)c1ccc2oc(=O)c(CC(=O)c3ccccc3)nc2c1	2	5
68	CCc1nc2n(n1)C(=O)C(C(c1cccc(C(F)(F)F)c1)N1CCC(C(N)=O)CC1)S2 (stereo unspecified)	-3	-8
69	O=C(CN1C(=O)c2ccc([N+](=O)[O-])cc2C1=O)NC(c1ccccc1)c1ccccc1	-9	-16
70	O=C(CC1CCc2ccccc21)Nc1ccccc1-c1nn[nH]n1 (stereo unspecified)	-1	-4
71	CC(c1ccc2ccccc2c1)N1CC(OCC(=O)N(C)C)C1 (stereo unspecified)	0	-1
72	Cc1ccc2c(c1)C1(SCCN1C(=O)c1ccccc1F)C(=O)N2Cc1cccc(C#N)c1 (stereo unspecified)	9	11
73	Cc1ccc(NC(=O)CN(C)C(=O)c2ccccc2-n2cnnn2)cc1	0	-3
74	Cc1cccc(CNC(=O)C(C2CCCC2)N2CCN(C(=O)c3cccs3)CC2)c1 (stereo unspecified)	0	7
75	CC(c1ccccc1)n1c(C(=O)NC2CCCCC2)cc2ccsc21 (stereo unspecified)	-2	3
76	CN(Cc1cccc(C(N)=O)c1)C(=O)NC1CCCOc2ccc(F)cc21 (stereo unspecified)	1	0
77	CN(CC(=O)N1CCN(Cc2ccccc2)CC1)C(=O)CCc1ccsc1	1	17
78	Cn1nc(-c2cccc(NC(=O)Cc3ccc(Cl)cc3)c2)ccc1=O	-1	-1
79	O=C(CCc1ccccc1)Nc1cccc(C2SCC(=O)N2c2ccc3c(c2)OCO3)c1 (stereo unspecified)	-3	-1
80	C=CC[C@@H]1CC=C[C@@H](C)N1Cc1nc(N)c2cc(OC)c(OC)cc2n1	20	8
81	CCCCc1ccc(C(=O)CSc2nc(N)c(C#N)c(-c3ccc(O)cc3)c2C#N)cc1	-1	-7
82	CN1CCN(C(=O)c2cc(-c3ccco3)on2)CC1	-2	-3
83	Cc1nc(CN)cc(N2C[C@H]3CC[C@H]2C3)n1	11	7
84	CN(CC1CC(=O)N(C2CCCC2)C1)C1CCC2(CCNCC2)CC1 (stereo unspecified)	12	7
85	Cc1cc(CC(=O)N2CCC(c3n[nH]c(=O)n3Cc3ccccc3)CC2)on1	6	12
86	Cc1cn2c3c(=O)n(CCc4ccccc4)c(=O)n(C)c3nc2n1Cc1ccco1	7	8
87	Cc1ccc(S(=O)(=O)NC2(C(F)(F)F)C(=O)Nc3c2c(=O)[nH]c(=O)n3Cc2ccco2)cc1 (stereo unspecified)	-6	-12
88	COc1cc(Cl)cc(CNC2COc3ccccc3C2)c1OC (stereo unspecified)	2	-3
89	COc1ccc2oc(CNC(=O)c3cccc4ccnn34)nc2c1	30	16
90	COc1ccc(CN2CC(C(N)=O)Oc3ccccc32)cc1F (stereo unspecified)	1	0
91	CCOC(=O)N1CCC(N2CCN(Cc3ccc(F)c(F)c3)C(CCO)C2)CC1 (stereo unspecified)	-2	-6
92	Cc1ccc(F)cc1CC(=O)NCCN(C)S(C)(=O)=O	1	0
93	CCS(=O)(=O)N1Cc2ccccc2CC1C(=O)N1CCCSC1=Nc1ccccc1 (stereo unspecified)	2	2
94	COc1ccc(S(=O)(=O)CCCC(=O)N(Cc2cccnc2)c2nc3ccc(F)cc3s2)cc1	3	1
95	CSc1nnc(CNC(=O)c2ccc(C(C)(C)C)cc2)o1	3	3
96	CCn1c2ccccc2c2nc3ccccc3nc21	3	2
97	COc1ccc(CCN2C(=O)CC(C(=O)Nc3ccc(F)cc3)SC2=Nc2ccccc2)cc1 (stereo unspecified)	2	1
98	CC(C)c1cc(C2CCN(C(=O)CC34CC5CC(CC(O)(C5)C3)C4)CC2)[nH]n1	-2	-5
99	C=CCSc1nc2ccccc2n1CCO	2	0
100	O=C1c2cc(Cl)c(Cl)cc2C(=O)N1CN1CCOCC1	6	4

# New compounds follow
item	mol	NPYLR7 ag	NPYLR7 ag max-min
101	Cc1ccc(C(=O)CSc2ccc(NC(=O)C(C)C)nn2)c(C)c1	3	1
102	O=C(CCCn1nnnc1CN1CCc2ccccc2C1)NCCC1=CCCCC1	-7	-7
103	Cc1nn(C)c(C)c1CN(C(=O)CCN1CCCCO1)C(C)C	-2	-9
104	CC1CCN(C(=O)NCCCS(=O)(=O)c2ccccc2)C(C)C1 (stereo unspecified)	3	2
105	CC(C)c1cc(C(=O)NCc2nc(Cc3cccs3)no2)n(C)n1	9	7
106	O=C(C=Cc1cccc(F)c1)N1CCCN(S(=O)(=O)c2ccc(F)cc2)CC1	2	2
107	O=C1C[C@H]2CC[C@@H](CN1)N2C(=O)c1ccc(-c2noc(C3CC3)n2)cc1	-8	-15
108	Cc1c(C(=O)NCc2ccc(F)cc2)sc(=O)n1CC(=O)c1ccc(F)cc1	11	2
109	O=S(=O)(CCN1CCC(Oc2ccncc2)CC1)c1ccccc1	4	3
110	O=C(COc1ccc(Cl)cc1)N1CCCC(OCc2cc(F)ccc2F)C1 (stereo unspecified)	-3	-1
111	O=C(Cn1ccc2c1CCCC2C(=O)N1CCCC1)N1CCOCC1 (stereo unspecified)	-10	-12
112	COc1ccccc1C=C1SC(=O)N(CCN)C1=O	-4	-8
113	Cc1noc2ncnc(N3CCC4(CCCO4)CC3)c12	3	3
114	N#Cc1cccc(C(=O)OCC(=O)Nc2sc3c(c2C(N)=O)CCCC3)c1	-1	-2
115	O=C(c1cccs1)N1CCc2ccccc2C1c1ccc(F)cc1 (stereo unspecified)	-1	6
116	COc1cccc(-c2nc3cc(C)ccn3c2NC(C)(C)CC(C)(C)C)c1	-4	-2
117	Cc1c(C)n2c3c(=O)n(Cc4ccc(F)cc4)c(=O)n(C)c3nc2n1CCOCCO	-6	-9

# One compound at a time, as listed above. Screens in order: NPYLR7 ag | NPYLR7 ag max-min
# `Cc1ccc(C(=O)CSc2ccc(NC(=O)C(C)C)nn2)c(C)c1` is entered as 3 | 1
# `N#Cc1cccc(C(=O)OCC(=O)Nc2sc3c(c2C(N)=O)CCCC3)c1` is entered as -1 | -2
